Assay outcomes from PubChem BioAssay.
Vaccinia Venus: qHTS for Stage-Specific Inhibitors of Vaccinia Orthopoxvirus: Venus Reporter Primary qHTS. hit rate 0.46% among 330,000. Potency, µM (doses to about 36.5 µM), for the others: at the top dose activity change, negative = inhibition, most hits filed as inhibitors. Vaccinia virus Venus reporter expression, fluorescence; active means well fitted inhibition curve with a large enough effect; inconclusive means small, poorly fitted or top-dose-only effect; inactive means no such curve, though single readings can be large or run the other way; tested in A549 cells; note: nearly all actives have a fitted effect of over 30% in size; inactives centre near -10
Vaccinia mCherry: qHTS for Stage-Specific Inhibitors of Vaccinia Orthopoxvirus: mCherry Reporter Primary qHTS; AID 720579, 2013; hit rate 0.63% among 310,000; Vaccinia virus mCherry reporter infection, fluorescence; about a quarter of the inactives have no number; Potency, µM (doses to about 36.5 µM), for the others: at the top dose activity change, negative = inhibition, actives largely listed as inhibitors; active = well fitted inhibition curve with a large enough effect; inconclusive = small, poorly fitted or top-dose-only effect; inactive = no such curve, though single readings can be large or run the other way; tested in A549 cells; note: nearly all actives have a fitted effect of over 35% in size; inactives centre near -10
* = called active by the depositor; & = joins results of further samples; [ ] = another dose, or the depositor's remark. % is set by controls: 0 for no effect and ±100 for the full control effect; potency is the fitted concentration of half-maximal effect.

Screening CCOC(=O)C1(C)CCCCCN1C(=O)c1ccc(OC)c(C(F)(F)F)c1 (configuration not stated) returned Vaccinia Venus 2% and Vaccinia mCherry 9%.
NC(=O)/C(N=Nc1ccccc1)=N/Nc1ccccc1 was read as Vaccinia Venus -10% and Vaccinia mCherry -21%.
`CCn1c(=O)c2ccccc2n2c(SCC(N)=O)nnc12` gave Vaccinia Venus -1% and Vaccinia mCherry -2%.
For COc1ccc(CC(N)c2csc(Nc3ncccn3)n2)cc1 (configuration not stated) the results were Vaccinia Venus inconclusive and Vaccinia mCherry 13µM*.
`C#Cc1ccc([C@@H]2C=C(C(=O)NC3CC3)O[C@H](OCc3ccc(CO)cc3)C2)cc1` gave Vaccinia Venus -7% and Vaccinia mCherry inactive.
Screening COC(=O)Cn1c(=NC(=O)CSCC(=O)Nc2cc(C)on2)sc2cc(C(=O)OC)ccc21 returned Vaccinia Venus -11% and Vaccinia mCherry inactive.
`C=CCOc1ccc(C2/C(=C(/O)c3ccc4c(c3)CC(C)O4)C(=O)C(=O)N2CCCN2CCOCC2)cc1` (configuration not stated) gave Vaccinia Venus -14% and Vaccinia mCherry -10%.
Screening COc1cc(C)c(Cl)cc1S(=O)(=O)n1ccnc1 returned Vaccinia Venus -13% and Vaccinia mCherry inactive.
For COc1ccc2[nH]cc(/C=C/C(=O)c3ccccc3)c2c1 the results were Vaccinia Venus inconclusive and Vaccinia mCherry inconclusive.
`CCOc1cnc(-c2ccc(OC)cc2)o1` gave Vaccinia Venus 10%.
`S=c1sc2c(N3CCN(Cc4ccccc4)CC3)ncnc2n1-c1ccccc1` gave Vaccinia Venus 19%.
`CN(Cc1ccccc1)C(=O)COC(=O)c1ccc2ccccc2n1` gave Vaccinia Venus -6% and Vaccinia mCherry -14%.
For CCn1nc(C(=O)Nc2nc3ccccc3[nH]2)c2ccccc2c1=O the results were Vaccinia Venus -7% and Vaccinia mCherry 0%.
For CN1CCN(S(=O)(=O)c2cccc(C(=O)Nc3cccc([N+](=O)[O-])c3)c2)CC1 the results were Vaccinia Venus -19% and Vaccinia mCherry -25%.
COc1cc(C(CC(=O)Nc2cc(C)ccn2)N2Cc3ccccc3C2=O)cc(OC)c1OC (configuration not stated) was read as Vaccinia Venus -6%&3% and Vaccinia mCherry -11%&-6%.
For O=C(CNC1=NCCS1)c1c[nH]c2ccccc12 the results were Vaccinia Venus -15% and Vaccinia mCherry -9%.
CC(=O)c1cc2c(cc1N/C(=N/S(=O)(=O)c1ccc(F)cc1)c1ccccc1)OCO2 was read as Vaccinia Venus -3% and Vaccinia mCherry -16%.
`c1ccc(-c2ccccc2OCCN2CCOCC2)cc1` gave Vaccinia Venus 3% and Vaccinia mCherry -4%.
For Oc1[nH]c2ccc(Br)cc2c1N=NC(=S)Nc1ccc(F)cc1 the results were Vaccinia Venus -15% and Vaccinia mCherry inconclusive.
Screening CC(=O)Oc1ccc(-c2cccc(C(=O)NCCO)c2)cc1 returned Vaccinia Venus 1% and Vaccinia mCherry inactive.
Screening COc1ccc(CCNC(=O)Cn2c(=O)cc(C(F)(F)F)c3c(C)nn(C)c32)cc1OC returned Vaccinia Venus -1% and Vaccinia mCherry -3%.
Screening CCOc1ccc(C2C(C(=O)Nc3cc(C)on3)c3ccccc3C(=O)N2CCN2CCOCC2)cc1 (configuration not stated) returned Vaccinia Venus -19% and Vaccinia mCherry -7%.
CCC(c1nnnn1C(C)C)N1CCN(C2CCCC2)CC1 (configuration not stated) was read as Vaccinia Venus -6%.
For COc1cc(OC)cc(-c2c(-c3cccs3)c3cc(-c4ccc(OC)cc4F)ccc3n2C)c1 the results were Vaccinia Venus 0% and Vaccinia mCherry -15%.
For CC(C)c1cc(-c2nc(-c3ccc(Cl)cc3)no2)n[nH]1 the results were Vaccinia Venus -21% and Vaccinia mCherry -15%.
O=C(O)C1(Nc2ccccc2)CCCC1 was read as Vaccinia Venus -9% and Vaccinia mCherry -21%.
COC(=O)C1=C(C)N(Cc2ccccc2)C(=NCc2cc(OC)c(OC)c(OC)c2)N[C@H]1CCc1ccccc1 was read as Vaccinia Venus -23% and Vaccinia mCherry inactive.
CC(=O)Nc1ccc(NC(=O)CCC(=O)c2ccc(C)cc2)cc1 was read as Vaccinia Venus -1% and Vaccinia mCherry -15%.
For CCC1(c2ccccc2)NC(=O)N(CC(=O)Nc2ccc(S(=O)(=O)NC3=NCCCCC3)cc2)C1=O (configuration not stated) the results were Vaccinia Venus -9% and Vaccinia mCherry -3%.
`Clc1cccc(-c2cccc3nccn23)c1Cl` gave Vaccinia Venus -6% and Vaccinia mCherry -5%.
CC(=O)c1sc(NC(=O)C2CCN(c3ncnc4sc(C)c(C)c34)CC2)nc1-c1ccccc1 was read as Vaccinia Venus -1% and Vaccinia mCherry inactive.
`Cc1nn(C)c(C)c1Nc1ccc(N2C(=O)C3C4C=CC(C4)C3C2=O)cc1[N+](=O)[O-]` (configuration not stated) gave Vaccinia Venus -29% and Vaccinia mCherry -12%.
For Clc1ccc(CSc2ncn[nH]2)cc1 the results were Vaccinia Venus -7% and Vaccinia mCherry inactive.
Screening COc1cc(/C=C/[N+](=O)[O-])ccc1OCc1cccc(C(=O)O)c1 returned Vaccinia Venus -6% and Vaccinia mCherry inactive.
`O=C1NCN(c2ccccc2)C12CCN(C(c1nnnn1-c1ccc3c(c1)OCCO3)C1CC1)CC2` (configuration not stated) gave Vaccinia Venus -4% and Vaccinia mCherry inactive.
Screening FC(F)C(F)(F)Oc1cccc(Nc2nccn3c(-c4cccc5ccccc45)cnc23)c1 returned Vaccinia Venus -20% and Vaccinia mCherry inconclusive.
CC1C(=O)N2CCCc3cc(NC(=O)C(=O)NCCCc4ccccc4)cc1c32 (configuration not stated) was read as Vaccinia Venus -25% and Vaccinia mCherry -8%.
`O=C(O)CSc1ccn(Cc2ccccc2)c1` gave Vaccinia Venus -1% and Vaccinia mCherry inactive.
`CC1CCN(S(=O)(=O)Cc2ccccc2Cl)CC1` gave Vaccinia Venus -16% and Vaccinia mCherry -16%.
For CCOC(=O)Cc1csc(NC(=O)Nc2cccc(Cl)c2)n1 the results were Vaccinia Venus -2% and Vaccinia mCherry -9%.
`Cc1ccc(-n2c(O)c(/C=N/Nc3ccccc3)c(=O)[nH]c2=O)cc1C` gave Vaccinia Venus 18% and Vaccinia mCherry inconclusive.
For COc1ccc2c(c1)c(C(=O)O)c(C)n2-c1ccccc1 the results were Vaccinia Venus -14% and Vaccinia mCherry 9%.
`Cc1cccc(Nc2nc(N)nc(CSC(=S)N3CCOCC3)n2)c1` gave Vaccinia Venus inconclusive and Vaccinia mCherry -19%.
For O=C(CN1C(=O)NC2(CCCC2)C1=O)N1CCN(Cc2ccccc2)CC1 the results were Vaccinia Venus 0% and Vaccinia mCherry -2%.
`COc1ccc(CNCc2ccncc2)c(OC)c1` gave Vaccinia Venus -7% and Vaccinia mCherry -2%.
`CCOc1ccc(CCNC(=O)CCc2cn(Cc3ccc(F)cc3)c3ccccc23)cc1` gave Vaccinia Venus -7% and Vaccinia mCherry -10%.
For COc1ccc(OC)c(S(=O)(=O)N2CCC(c3ccncc3)CC2)c1 the results were Vaccinia Venus -18% and Vaccinia mCherry -7%.
Screening C/C(=N\NC(=O)CN(c1ccccc1)S(=O)(=O)c1ccccc1[N+](=O)[O-])C(C)(C)C returned Vaccinia Venus -9% and Vaccinia mCherry -6%.
For COc1cccc(OCC(=O)Nc2ccccc2NC(C)=O)c1 the results were Vaccinia Venus -6% and Vaccinia mCherry -14%.
Screening O=C(Nc1cccc(-c2cn3ccccc3n2)c1)c1cc2ccccc2oc1=O returned Vaccinia Venus -14% and Vaccinia mCherry inactive.
`CCOC(=O)c1c(C)sc(-c2c(-c3ccccc3)[nH]c3[nH]c(=O)[nH]c(=O)c23)c1O` gave Vaccinia Venus -1% and Vaccinia mCherry inactive.
COC(=O)c1ccc(N=NNc2cccc(Br)c2)cc1 was read as Vaccinia Venus -20% and Vaccinia mCherry -7%.
Screening CC(=O)Nc1ccc(NC(=O)C(C)OC(=O)c2ccc(S(=O)(=O)N3CCCCCC3)cc2)cc1 (configuration not stated) returned Vaccinia Venus 0% and Vaccinia mCherry inactive.
Screening COc1ccc(S(=O)(=O)NN(C)C(=O)c2nn(-c3ccccc3)ccc2=O)cc1 returned Vaccinia Venus -11% and Vaccinia mCherry -3%.
`Cc1cccc(OCC(=O)N/N=C\c2cn(C)c3ccccc23)c1` gave Vaccinia Venus -9% and Vaccinia mCherry -12%.
`CCCCn1c(O)c(C=Nc2c(C)n(C)n(-c3ccccc3)c2=O)c(=O)[nH]c1=O` gave Vaccinia Venus -9% and Vaccinia mCherry -13%[1.46 µM].
Screening CCOC(=O)N1CCN(S(=O)(=O)c2ccc(F)cc2)CC1 returned Vaccinia Venus -9% and Vaccinia mCherry -9%.
For CCCCN(C)C(=O)C1CCC(=O)N(c2cc(OC)c(OC)c(OC)c2)C1c1ccc(OC)cc1 (configuration not stated) the results were Vaccinia Venus 2% and Vaccinia mCherry -13%.
Screening Cc1nn(-c2ccccc2)c(N2CCCC2)c1/C=N/Nc1ccc(S(N)(=O)=O)cc1[N+](=O)[O-] returned Vaccinia Venus inconclusive and Vaccinia mCherry inconclusive.
`Cc1c(C(=O)COC(C)(C)C)[nH]c2ccccc12` gave Vaccinia Venus -16%.

At a glance, 11 of the compounds above:
`Cc1ccc(-n2c(O)c(/C=N/Nc3ccccc3)c(=O)[nH]c2=O)cc1C` gave Vaccinia Venus 18% and Vaccinia mCherry inconclusive.
For COc1ccc2c(c1)c(C(=O)O)c(C)n2-c1ccccc1 the results were Vaccinia Venus -14% and Vaccinia mCherry 9%.
`Cc1cccc(Nc2nc(N)nc(CSC(=S)N3CCOCC3)n2)c1` gave Vaccinia Venus inconclusive and Vaccinia mCherry -19%.
For O=C(CN1C(=O)NC2(CCCC2)C1=O)N1CCN(Cc2ccccc2)CC1 the results were Vaccinia Venus 0% and Vaccinia mCherry -2%.
`COc1ccc(CNCc2ccncc2)c(OC)c1` gave Vaccinia Venus -7% and Vaccinia mCherry -2%.
`CCOc1ccc(CCNC(=O)CCc2cn(Cc3ccc(F)cc3)c3ccccc23)cc1` gave Vaccinia Venus -7% and Vaccinia mCherry -10%.
For COc1ccc(OC)c(S(=O)(=O)N2CCC(c3ccncc3)CC2)c1 the results were Vaccinia Venus -18% and Vaccinia mCherry -7%.
Screening C/C(=N\NC(=O)CN(c1ccccc1)S(=O)(=O)c1ccccc1[N+](=O)[O-])C(C)(C)C returned Vaccinia Venus -9% and Vaccinia mCherry -6%.
For COc1cccc(OCC(=O)Nc2ccccc2NC(C)=O)c1 the results were Vaccinia Venus -6% and Vaccinia mCherry -14%.
Screening O=C(Nc1cccc(-c2cn3ccccc3n2)c1)c1cc2ccccc2oc1=O returned Vaccinia Venus -14% and Vaccinia mCherry inactive.
`CCOC(=O)c1c(C)sc(-c2c(-c3ccccc3)[nH]c3[nH]c(=O)[nH]c(=O)c23)c1O` gave Vaccinia Venus -1% and Vaccinia mCherry inactive.

Carrying on.
CCC(C)NCCOc1ccccc1C (configuration not stated) was read as Vaccinia Venus 3% and Vaccinia mCherry -1%.
`Cc1ccc(C)c(NC(=O)C2CC(O)CN2C(=O)Oc2ccccc2)c1` (configuration not stated) gave Vaccinia Venus 4% and Vaccinia mCherry -6%.
Screening O=S1(=O)CC(N2CC=CC2)CN1C1CCCCC1 (configuration not stated) returned Vaccinia Venus -5% and Vaccinia mCherry 45%[activator].
For COc1ccc(NC(=O)C2CCN(S(=O)(=O)c3ccc4c(c3)CCCC(=O)N4)CC2)c(OC)c1 the results were Vaccinia Venus -5% and Vaccinia mCherry -10%.
Screening Cc1cccc(CCNC(=O)C2CCN(S(=O)(=O)c3cccc4nsnc34)CC2)c1 returned Vaccinia Venus -11% and Vaccinia mCherry inactive.
c1cc(-c2cccs2)nc(-c2cccs2)c1 was read as Vaccinia Venus 5% and Vaccinia mCherry -2%.
Screening COc1ccccc1OCC(=O)Nc1cc(-c2ccc(C)cc2)no1 returned Vaccinia Venus -16% and Vaccinia mCherry -3%.
Cc1sc2ncnc(SCC(=O)NC(C)C(C)C)c2c1C (configuration not stated) was read as Vaccinia Venus -24% and Vaccinia mCherry -22%.
For O=C(NC12CC3CC(CC(C3)C1)C2)c1ccccc1 the results were Vaccinia Venus -12% and Vaccinia mCherry inactive.
Screening COc1ccccc1NS(=O)(=O)c1cccc(N2CC(O)=C(c3ccccc3)C2=N)c1 returned Vaccinia Venus 5% and Vaccinia mCherry 3%.
O=C(COc1ccc(Br)cc1)N/N=C1\SCC(=O)N1c1ccc(F)cc1 was read as Vaccinia Venus -12% and Vaccinia mCherry inactive.
For CCC/C(O)=C1\C(=O)CC(C)(C)CC1=Nc1ccc(OC)cc1 the results were Vaccinia Venus -15% and Vaccinia mCherry -15%.
Screening O=C(c1ccccc1)c1ccc(Cn2cc(CCCO)nn2)cc1 returned Vaccinia Venus -21% and Vaccinia mCherry -22%.
Screening CN1CCN(c2ccc(C(CC(N)=O)NC(=O)c3ccccc3)cc2[N+](=O)[O-])CC1 (configuration not stated) returned Vaccinia Venus -4% and Vaccinia mCherry -2%.
For CC(C)C(NS(=O)(=O)c1cccs1)C(=O)Nc1nc(C(C)(C)C)cs1 (configuration not stated) the results were Vaccinia Venus -7% and Vaccinia mCherry -27%.
`COc1ccc(S(=O)(=O)N(C)C[C@H]2Oc3c(NS(=O)(=O)c4ccc(F)cc4)cccc3C(=O)N([C@H](C)CO)C[C@@H]2C)cc1` gave Vaccinia Venus inconclusive and Vaccinia mCherry -14%.
